# High-throughput results deposited in PubChem BioAssay by Broad Institute.
# Env fusion inh – inhibitors of HIV Env-mediated cell fusion. inhibition, % at 12.3 µM. HeLa-JRFL Env/CEM21 cell fusion, luciferase. actives 1.1% (n = 360,000);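 active = mean replicate inhibition score of at least 50 and every replicate individually at or above 50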;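 note: 0% = plate neutral controls and 100% = maraviroc near 300 nM; one replicate is shown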
# UUG fidelity – modulators of start codon recognition fidelity in yeast | S. cerevisiae UUG-firefly luciferase reporter, luminescence/redox ratio | activity score, % at 18.7 µM | actives 0.13% (n = 350,000);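 active = replicate mean at a twofold rise or more, about +100% in these data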;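 note: firefly luciferase made from a UUG start codon reports start codon fidelity; reporter light over untreated wells divided by growth signal over untreated wells; some hits fall short of that in this replicate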
# * = called active by the depositor; [ ] = remark or other dose. Not all compounds are listed; rates above refer to the full screens.
Molecule | UUG fidelity | Env fusion inh
Cc1ccc(S(=O)(=O)NCC[C@H]2CC[C@@H](NC(=O)c3cnccn3)[C@H](CO)O2)cc1 | 22 | 11[16.7 µM]
C[C@@H]1CCCCO[C@H](CN(C)C(=O)c2ccccc2)[C@@H](C)CN([C@H](C)CO)C(=O)c2cc(NC(=O)C3CCCCC3)ccc2O1 | 6 | 0[16.7 µM]
N#C[C@@H]1[C@@H](c2ccc(C3=CCCCC3)cc2)[C@@H](CO)N1C(=O)NC1CCCCC1 | -4 | 15[16.7 µM]
C[C@@H]1CCCCO[C@@H](CN(C)CC2CC2)[C@@H](C)CN([C@H](C)CO)C(=O)c2cc(NS(=O)(=O)c3cccs3)ccc2O1 | 5 | -7[16.7 µM]
COc1ccc(S(=O)(=O)Nc2ccc3c(c2)CC(=O)N([C@@H](C)CO)C[C@@H](C)[C@H](CN(C)S(=O)(=O)c2cn(C)cn2)O3)cc1 | 5 | 32[16.7 µM]
COc1ccc(S(=O)(=O)Nc2ccc3c(c2)C(=O)N([C@H](C)CO)C[C@@H](C)[C@H](CN(C)C(=O)Nc2ccc4c(c2)OCO4)O3)cc1 | -2 | 12[16.7 µM]
C[C@@H]1CN([C@@H](C)CO)C(=O)c2cc(C#Cc3ccc(F)cc3)cnc2O[C@@H]1CN(C)S(C)(=O)=O | -6 | -12[16.7 µM]
C[C@H](CO)N1C[C@H](C)[C@@H](CN(C)S(=O)(=O)c2cn(C)cn2)Oc2ccc(NC(=O)c3ccncc3)cc2CC1=O | 0 | 8[16.7 µM]
C[C@@H]1CN([C@H](C)CO)C(=O)c2cc(N(C)C)ccc2O[C@@H]1CN(C)Cc1ccc(Cl)c(Cl)c1 | 2 | 10[16.7 µM]
COC(=O)C[C@@H]1C=C[C@@H](NS(=O)(=O)c2ccccc2F)[C@@H](CO)O1 | -20 | -5[16.7 µM]
COc1ccc(S(=O)(=O)N(C)C[C@H]2OCCCC[C@@H](C)Oc3ccc(NC(=O)NC4CCCCC4)cc3C(=O)N([C@@H](C)CO)C[C@H]2C)cc1 | 0 | 11[16.7 µM]
CNC[C@@H]1OCCCC[C@@H](C)Oc2ccc(NC(=O)Nc3ccc(F)cc3)cc2C(=O)N([C@@H](C)CO)C[C@@H]1C | 15 | -3[16.7 µM]
C[C@H](CO)N1C[C@H](C)[C@@H](CN(C)Cc2ccccc2)Oc2c(NC(=O)c3cnccn3)cccc2C1=O | -6 | -5[16.7 µM]
C[C@H](CO)N1C[C@H](C)[C@H](CN(C)CC2CC2)Oc2cc(-c3cccc(F)c3)ccc2S1(=O)=O | 2 | 9[16.7 µM]
CC(C)NC(=O)Nc1ccc2c(c1)C(=O)N([C@H](C)CO)C[C@H](C)[C@H](CN(C)CC1CC1)OCCCC[C@@H](C)O2 | -2 | 0[16.7 µM]
Cc1ccc(S(=O)(=O)N[C@@H]2CC[C@@H](CCn3cc(C4CC4)nn3)O[C@@H]2CO)cc1 | -6 | 5[16.7 µM]
CNC[C@H]1Oc2cc(-c3ccccc3OC)ccc2S(=O)(=O)N([C@@H](C)CO)C[C@@H]1C | 17 | -2[16.7 µM]
C[C@@H]1CN([C@H](C)CO)C(=O)c2cc(C#Cc3ccccn3)cnc2O[C@H]1CN(C)Cc1cncnc1 | -15 | -8[16.7 µM]
C[C@@H]1CN([C@@H](C)CO)C(=O)c2cccc(NC(=O)c3cnccn3)c2O[C@H]1CN(C)C(=O)Nc1ccc(F)cc1 | 2 | 24[16.7 µM]
CS(=O)(=O)Nc1ccc2c(c1)[C@@H]1C[C@H](CC(=O)NCc3cccc(F)c3)O[C@@H](CO)[C@@H]1O2 | -9 | -3[16.7 µM]
Cc1ccc(S(=O)(=O)Nc2ccc3c(c2)C(=O)N([C@@H](C)CO)C[C@H](C)[C@@H](CN(C)Cc2ccc(Cl)c(Cl)c2)OCCCC[C@H](C)O3)cc1 | -4 | 32[16.7 µM]
COc1ccc(S(=O)(=O)Nc2ccc3c(c2)C(=O)N([C@@H](C)CO)C[C@H](C)[C@@H](CN(C)S(=O)(=O)c2ccc(OC)cc2)OCCCC[C@H](C)O3)cc1 | -13 | -82[16.7 µM]
CC(C)NC(=O)N(C)C[C@@H]1Oc2ccc(NC(=O)Nc3cccc4ccccc34)cc2C(=O)N([C@@H](C)CO)C[C@@H]1C | 151* | 1[16.7 µM]
C[C@@H]1CN([C@H](C)CO)S(=O)(=O)c2ccc(C#CC3CC3)cc2O[C@@H]1CN(C)CC1CC1 | 9 | -20[16.7 µM]
CCCN(C)C[C@H]1Oc2cc(C#CCC3CCCC3)ccc2S(=O)(=O)N([C@H](C)CO)C[C@@H]1C | 15 | -2[16.7 µM]
C[C@@H]1CN([C@@H](C)CO)C(=O)c2cc(-c3ccncc3)cnc2O[C@@H]1CN(C)C(=O)c1ccncc1 | -6 | -14[16.7 µM]
Cc1noc(C)c1S(=O)(=O)Nc1ccc2c(c1)C(=O)N([C@@H](C)CO)C[C@@H](C)[C@@H](CN(C)C(=O)NC1CCCCC1)OCCCC[C@H](C)O2 | -11 | -31[16.7 µM]
C[C@H](CO)N1C[C@H](C)[C@H](CN(C)S(=O)(=O)c2cccc(F)c2)Oc2ncc(C#Cc3ccc(C(F)(F)F)cc3)cc2C1=O | -24 | 12[16.7 µM]
CCCNC(=O)Nc1ccc2c(c1)C(=O)N(C)[C@H]1CC[C@H](CC(=O)O)O[C@H]1CO2 | -11 | 15[16.7 µM]
O=C(C[C@@H]1CC[C@@H]2[C@H](COC[C@H](O)CN2Cc2cccc(Cl)c2)O1)NCC1CCCCC1 | -1 | 27[16.7 µM]
COc1ccc(CN(C)C[C@@H]2OCCCC[C@@H](C)Oc3ccc(NS(=O)(=O)c4c(C)noc4C)cc3C(=O)N([C@H](C)CO)C[C@@H]2C)cc1 | -11 | -8[16.7 µM]
Cc1noc(C)c1S(=O)(=O)N(C)C[C@@H]1Oc2ccc(NC(=O)Cc3cn(C)c4ccccc34)cc2CC(=O)N([C@@H](C)CO)C[C@@H]1C | -11 | 24[16.7 µM]
C[C@H](CO)N1C[C@H](C)[C@@H](CN(C)Cc2ccc(C(F)(F)F)cc2)Oc2c(NC(=O)Nc3ccc4c(c3)OCO4)cccc2C1=O | 13 | 34[16.7 µM]
COCC(=O)N(C)C[C@H]1Oc2ncc(-c3ccc(F)cc3)cc2C(=O)N([C@@H](C)CO)C[C@@H]1C | -4 | 9[16.7 µM]
C[C@H](CO)N1C[C@H](C)[C@@H](CN(C)C(=O)c2ccccn2)Oc2ncc(-c3cccc(C#N)c3)cc2C1=O | -12 | 0[16.7 µM]
CNC[C@@H]1OCCCC[C@H](C)Oc2ccc(NS(C)(=O)=O)cc2C(=O)N([C@H](C)CO)C[C@@H]1C | 14 | 12[16.7 µM]
CCNC(=O)Nc1ccc2c(c1)C(=O)N(C)[C@@H]1CC[C@H](CC(=O)NCc3ccc(F)cc3)O[C@@H]1CO2 | -1 | 4[16.7 µM]
C[C@@H]1CCCCO[C@@H](CN(C)C(=O)c2ccccc2)[C@H](C)CN([C@H](C)CO)C(=O)c2cc(NS(=O)(=O)c3ccc(Cl)cc3)ccc2O1 | 8 | -24[16.7 µM]
CCCNC(=O)Nc1ccc2c(c1)C(=O)N(C)C[C@@H](OC)[C@H](C)CN(C)[C@H](C)CO2 | 5 | -9[16.7 µM]
Cc1noc(C)c1NC(=O)N(C)C[C@@H]1Oc2ccc(NC(=O)c3ccncc3)cc2CC(=O)N([C@@H](C)CO)C[C@H]1C | -7 | -2[16.7 µM]
C[C@@H]1CN([C@H](C)CO)C(=O)c2cc(NS(=O)(=O)c3ccc(Cl)cc3)ccc2O[C@@H]1CN(C)S(=O)(=O)c1ccccc1 | 10 | -13[16.7 µM]
C[C@@H]1CN([C@H](C)CO)C(=O)c2cc(NC(=O)Nc3ccc4c(c3)OCO4)ccc2O[C@@H](C)CCCCO[C@H]1CN(C)S(=O)(=O)c1cn(C)cn1 | 4 | 23[16.7 µM]
CC(=O)N(C)C[C@@H]1Oc2ncc(-c3ccc(C#N)cc3)cc2C(=O)N([C@H](C)CO)C[C@H]1C | -10 | -9[16.7 µM]
Cc1ccc(S(=O)(=O)Nc2ccc3c(c2)CC(=O)N([C@H](C)CO)C[C@H](C)[C@@H](CN(C)C(=O)Nc2ccccc2)O3)cc1 | 32 | 11[16.7 µM]
CC(C)NC(=O)Nc1ccc2c(c1)C(=O)N([C@H](C)CO)C[C@H](C)[C@@H](CN(C)S(=O)(=O)c1cn(C)cn1)OCCCC[C@@H](C)O2 | -18 | -1[16.7 µM]
CC(C)CC#Cc1cnc2c(c1)C(=O)N([C@H](C)CO)C[C@@H](C)[C@@H](CN(C)C(=O)Cc1ccncc1)O2 | -9 | 0[16.7 µM]
Cc1noc(C)c1NC(=O)Nc1ccc2c(c1)CC(=O)N([C@H](C)CO)C[C@@H](C)[C@@H](CN(C)Cc1ccc(C(=O)O)cc1)O2 | -6 | -5[16.7 µM]
C[C@H]1CN([C@@H](C)CO)C(=O)c2cccc(NS(=O)(=O)c3ccc(F)cc3)c2O[C@H]1CN(C)CC1CC1 | -2 | 15[16.7 µM]
CO[C@@H]1CN(C)C(=O)c2ccc(NC(=O)C3CC3)cc2OC[C@@H](C)N(CCc2ccccc2)C[C@H]1C | 6 | 18[16.7 µM]
C[C@@H]1CCCCO[C@@H](CN(C)Cc2ccc3c(c2)OCO3)[C@H](C)CN([C@@H](C)CO)C(=O)c2cc(NC(=O)c3ccccc3)ccc2O1 | 4 | 11[16.7 µM]
CC(C)CC#Cc1ccc2c(c1)O[C@H](CN(C)C(=O)c1cccnc1)[C@@H](C)CN([C@@H](C)CO)S2(=O)=O | 8 | -5[16.7 µM]
Cc1ccc(S(=O)(=O)N(C)C[C@H]2Oc3c(NC(=O)C4CCCCC4)cccc3C(=O)N([C@H](C)CO)C[C@@H]2C)cc1 | 11 | -8[16.7 µM]
C[C@H](CO)N1C[C@H](C)[C@H](CN(C)C(=O)Nc2cccc(F)c2)OCc2cn(nn2)CCCC1=O | -6 | 12[16.7 µM]
C[C@H]1CN([C@@H](C)CO)C(=O)c2cc(C#Cc3ccccn3)cnc2O[C@H]1CN(C)Cc1cncnc1 | -20 | 13[16.7 µM]
C[C@H](CO)N1C[C@H](C)[C@H](CN(C)Cc2ccccc2)Oc2ccc(NC(=O)c3ccncc3)cc2C1=O | -2 | 8[16.7 µM]
C/C=C/c1ccc2c(c1)O[C@@H](CN(C)C(=O)COC)[C@H](C)CN([C@@H](C)CO)S2(=O)=O | -8 | 7[16.7 µM]
CO[C@H]1CN(C)C(=O)c2ccc(NC(=O)NC(C)C)cc2OC[C@@H](C)NC[C@@H]1C | -5 | 1[16.7 µM]
CO[C@@H]1CN(C)C(=O)c2cc(NC(C)=O)ccc2OC[C@H](C)N(C(=O)c2ccncc2)C[C@@H]1C | -5 | 22[16.7 µM]
O=C(C[C@H]1C[C@@H]2c3cc(NC(=O)Nc4ccccc4)ccc3O[C@@H]2[C@@H](CO)O1)NCc1ccccn1 | -12 | -13[16.7 µM]
C[C@@H]1CN([C@@H](C)CO)C(=O)c2cc(C#CC3CCCCC3)cnc2O[C@H]1CN(C)Cc1ccncc1 | -12 | 12[16.7 µM]

# 7 compounds already listed, ordered by their value in UUG fidelity, rising.
Molecule | UUG fidelity | Env fusion inh
C[C@H]1CN([C@@H](C)CO)C(=O)c2cc(C#Cc3ccccn3)cnc2O[C@H]1CN(C)Cc1cncnc1 | -20 | 13[16.7 µM]
C[C@@H]1CN([C@@H](C)CO)C(=O)c2cc(C#CC3CCCCC3)cnc2O[C@H]1CN(C)Cc1ccncc1 | -12 | 12[16.7 µM]
C/C=C/c1ccc2c(c1)O[C@@H](CN(C)C(=O)COC)[C@H](C)CN([C@@H](C)CO)S2(=O)=O | -8 | 7[16.7 µM]
C[C@H](CO)N1C[C@H](C)[C@H](CN(C)C(=O)Nc2cccc(F)c2)OCc2cn(nn2)CCCC1=O | -6 | 12[16.7 µM]
CO[C@H]1CN(C)C(=O)c2ccc(NC(=O)NC(C)C)cc2OC[C@@H](C)NC[C@@H]1C | -5 | 1[16.7 µM]
C[C@H]1CN([C@@H](C)CO)C(=O)c2cccc(NS(=O)(=O)c3ccc(F)cc3)c2O[C@H]1CN(C)CC1CC1 | -2 | 15[16.7 µM]
C[C@@H]1CCCCO[C@@H](CN(C)Cc2ccc3c(c2)OCO3)[C@H](C)CN([C@@H](C)CO)C(=O)c2cc(NC(=O)c3ccccc3)ccc2O1 | 4 | 11[16.7 µM]

# Next section:
Molecule | UUG fidelity | Env fusion inh
N#C[C@@H]1[C@H](c2ccccc2)[C@@H](CO)N1C(=O)c1cccnc1 | -14 | 4[16.7 µM]
O=C(C[C@H]1CC[C@H](NC(=O)c2ccccn2)[C@@H](CO)O1)NCc1cccc(F)c1 | -12 | -4[16.7 µM]
C[C@@H]1CCCCO[C@H](CN(C)S(=O)(=O)c2cn(C)cn2)[C@@H](C)CN([C@@H](C)CO)C(=O)c2cc(NS(=O)(=O)c3cccs3)ccc2O1 | 12 | 11[16.7 µM]
Cc1noc(C)c1S(=O)(=O)Nc1cccc2c1O[C@@H](CN(C)Cc1ccncc1)[C@@H](C)CN([C@@H](C)CO)C2=O | -3 | -12[16.7 µM]
CCCN1C[C@@H](C)[C@H](OC)CN(C)C(=O)c2ccc(NC(=O)COC)cc2OC[C@@H]1C | 0 | -7[16.7 µM]
C/C=C/c1ccc2c(c1)O[C@H](CN(C)Cc1ccncc1)[C@H](C)CN([C@H](C)CO)S2(=O)=O | -14 | 5[16.7 µM]
CC(C)NC(=O)Nc1ccc2c(c1)C(=O)N([C@H](C)CO)C[C@@H](C)[C@@H](CN(C)Cc1ccccc1)OCCCC[C@@H](C)O2 | 5 | 11[16.7 µM]
O=C(N[C@H]1CC[C@H](CCn2cc(-c3ccccc3)nn2)O[C@@H]1CO)c1ccccc1F | 10 | 21[16.7 µM]

# Some of the entries so far, with two lines to a compound:
# Second line of a record – UUG fidelity	Env fusion inh
- Cc1noc(C)c1S(=O)(=O)Nc1cccc2c1O[C@@H](CN(C)Cc1ccncc1)[C@@H](C)CN([C@@H](C)CO)C2=O
  -3	-12[16.7 µM]
- CCCN1C[C@@H](C)[C@H](OC)CN(C)C(=O)c2ccc(NC(=O)COC)cc2OC[C@@H]1C
  0	-7[16.7 µM]
